Assay outcomes: PubChem BioAssay, several laboratories
Beta2AR agonist: beta2AR agonists driving receptor internalization, primary screen, cell-based, FAP fluorogen, flow cytometry | Am2.2-beta2AR cells; reference of the scale not given here | response, % (concentration not given with the values) | actives 0.43% (n = 340,000) | AID 504454, 2011;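 active = response above a set limit, near 3 SD of response in nonfluorescent compounds, cut at about 42% in these data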;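 also: stock transfer was 100 nL into about 11 µL; a reference agonist was the positive control; negative values mostly stem from fluorescent compounds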
Target sequence (P07550 whole entry, looked up): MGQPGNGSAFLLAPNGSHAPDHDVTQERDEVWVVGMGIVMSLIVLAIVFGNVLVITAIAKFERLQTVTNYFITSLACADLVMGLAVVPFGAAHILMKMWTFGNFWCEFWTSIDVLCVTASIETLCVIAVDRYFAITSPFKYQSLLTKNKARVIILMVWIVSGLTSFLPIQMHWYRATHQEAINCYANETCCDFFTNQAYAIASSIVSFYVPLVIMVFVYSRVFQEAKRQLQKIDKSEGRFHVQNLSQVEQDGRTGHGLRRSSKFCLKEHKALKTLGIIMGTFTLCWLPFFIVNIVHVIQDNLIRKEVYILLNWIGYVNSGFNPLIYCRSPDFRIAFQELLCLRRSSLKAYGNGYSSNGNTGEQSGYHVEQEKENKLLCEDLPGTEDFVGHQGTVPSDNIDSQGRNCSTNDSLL
LANA-H2A inh: blockers of LANA interaction with H2A/H2B – biochemical, FP readout, HTS, primary screen; inhibition, % (concentration not given with the values); cell-free LANA-H2A/H2B peptide, fluorescence polarization; actives 0.6% (n = 320,000); Protein LANA1 (Human herpesvirus 8 type P (isolate GK18)), Q9QR71; in the data active = inhibition mostly above about 10%, no sharp cut-off; inactive = mostly below about 6.7%;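 also: stock transfer was 7.5 nL into about 10 µL; 0% = median of vehicle wells and 100% = median of positive control wells; one replicate is shown; the record names a cut of 25% in any replicate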
Calb FLC: C. albicans growth inhibition with fluconazole, primary screen, CaCi-2 strain, Alamar Blue fluorescence; C. albicans CaCi-2 (fluconazole-resistant clinical isolate) + fluconazole, 48 h; growth inhibition, % (test concentration not listed); actives 0.57% (n = 300,000); AID 1979, 2009;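 active = most replicates above 75%; inconclusive = exactly half above 75%; inactive = most below 75%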;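 also: all wells also contain fluconazole at 8 µg/ml as a sub-toxic cotreatment; 0% = median of DMSO wells and 100% = median of geldanamycin control wells; wells of about 8 µL received 7.5 nL stock; the first replicate is given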
T cruzi inh: inhibitors of intracellular T. cruzi growth, primary screen, luminescence, NIH3T3 host cells | T. cruzi beta-gal in NIH3T3, 90 h | inhibition, % (test concentration not listed) | actives 1.4% (n = 300,000);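 active = mean inhibition across valid replicates above about 55%, limit read from the data; inconclusive = mean below that limit but half or more replicates reach it; inactive = mean below it, under half of replicates reach it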;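 also: signal also drops with host cell toxicity which is not excluded here; 0% = plate median of DMSO wells and 100% = zero luminescence signal; higher percent means less beta-gal luminescence so fewer parasites; stock transfer was 50 nL into about 50 µL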
RanGTP-Imp inh: inhibitors of RanGTP-importin-beta interaction, primary screen, biochemical, FRET, CFP-Ran, YFP-importin-beta, homogeneous | inhibition, % (concentration not given with the values) | Ran GTPase (GTP-bound) - importin-beta complex | cell-free CFP-Ran/YFP-importin-beta FRET ratio | actives 1.1% (n = 300,000);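 active = most replicates above 15%; inconclusive = exactly half above 15%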;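 also: 0% = DMSO wells and 100% = Ran loaded with GDP instead of GTP; wells of about 40 µL received 100 nL stock; the first replicate is given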
Beta apoptosis: inhibitors of cytokine-induced beta cell apoptosis, primary screen, luminescence; INS-1E cytokine-induced death, ATP luminescence, 48 h; percent of positive-control rescue, neutral wells zero; AID 435005, 2010; protection from apoptosis, % (test concentration not listed); actives 0.8% (n = 300,000);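 active = all replicates at 75% or more, or half of them and the mean; inconclusive = half reach 75% but not the mean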;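 also: 0% = cytokine-treated negative control wells and 100% = positive control rescue; higher means more ATP so stronger rescue from cytokine killing; wells of about 40 µL received 100 nL stock; the first replicate is given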
Bfl-1 A1 inh: caspase 3/7 activation in MEF A1-2A-BIM cells, primary screen, A1 inhibitor project, cell-based, luminescence, HTS; Caspase-Glo 3/7 luminescence, 3 h; percent of clofoctol response, vehicle zero; caspase activation, % (no concentration beside the values); actives 0.066% (n = 330,000);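 active = over half of replicate activation scores above 10%, or exactly half above 10 with the replicate mean above 10; inconclusive = replicate mean below 10 yet half the replicates above 10; inactive = over half of replicates below 10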;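 also: wells of about 30 µL received 50 nL stock; many hits fall short of the cut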
UCH37 inh: inhibitors of human UCH37 deubiquitinase, primary screen, biochemical, Ub-AMC cleavage, fluorescence. purified proteasome/UCH37. inhibition, % (concentration not given with the values). actives 0.33% (n = 330,000). AID 588478, 2011;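 active = mean of two replicates above 20%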;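 also: 0% = compound-free wells with enzyme and 100% = wells lacking proteasome; stock transfer was 100 nL into about 20 µL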
Target sequence (Q9Y5K5 whole entry, looked up): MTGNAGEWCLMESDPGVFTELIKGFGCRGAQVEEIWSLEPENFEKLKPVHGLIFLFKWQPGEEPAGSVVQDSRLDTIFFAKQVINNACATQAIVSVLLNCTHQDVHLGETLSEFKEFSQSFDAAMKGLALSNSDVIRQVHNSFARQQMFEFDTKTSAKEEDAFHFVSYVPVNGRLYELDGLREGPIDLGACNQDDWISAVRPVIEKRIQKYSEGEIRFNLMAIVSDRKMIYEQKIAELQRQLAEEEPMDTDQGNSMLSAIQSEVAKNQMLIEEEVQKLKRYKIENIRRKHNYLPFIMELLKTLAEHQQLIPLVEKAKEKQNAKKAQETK
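Test system – human UCH37 enzyme supplied as purified proteasome complex · Incubation – 30 min preincubation with enzyme, 25 min cleavage at room temperature · Detection – AMC fluorescence from Ub-AMC cleavage, excitation 355 nm, emission 460 nm · Benchmarks – no-proteasome wells (full inhibition) and compound-free wells (no inhibition)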
Starred values were filed as active, the others as inactive; ? = inconclusive; · = no result given.

nr	smiles	Bfl-1 A1 inh	Calb FLC	RanGTP-Imp inh	LANA-H2A inh	UCH37 inh	Beta2AR agonist	Beta apoptosis	T cruzi inh
1	CC(C)(C)n1ncc2c(=O)n(Cc3ccc(Cl)cc3Cl)cnc21	0.0	0	-4.5	1.2	4.0	-13	6	27
2	Cn1c(N)c(C(=O)COC(=O)C2CCC(C(C)(C)C)CC2)c(=O)n(C)c1=O (stereo unspecified)	0.0	2	4.3	0.6	4.0	-1	-9	27
3	CC(C)Cn1c(N2CCN(C(=O)/C=C/c3ccccc3)CC2)nc2ccccc21	0.0	14	5.6	-1.2	2.1	3	0	25
4	CSc1ccccc1NC(=O)CN(C)CC(=O)Nc1ccc(S(=O)(=O)N2CCCC2)cc1	0.6	·	·	-2.0	-1.3	4	-6	·
5	CCN1CCN(CCCNC(=O)C2c3ccccc3C(=O)N(C)C2c2ccc(OC)cc2)CC1 (stereo unspecified)	-0.5	8	0.3	-0.9	2.9	-1	9	-8
6	Cc1ccc(CNC(=O)c2cc(=O)c3ccc(C)cc3o2)cc1	-0.6	-4	0.1	0.2	5.4	6	-1	11
7	O=C(NCC1CCCO1)c1ccccc1NS(=O)(=O)c1ccc(F)cc1 (stereo unspecified)	1.2	·	·	0.0	-1.4	9	6	·
8	CC12CC(NC(=O)N1CCc1ccccc1)c1cc(Cl)ccc1O2 (stereo unspecified)	-1.1	-3	1.4	-1.6	1.9	3	17	27
9	CC(=O)N1CCc2cc(S(=O)(=O)CCC(=O)NCc3ccc(F)cc3)ccc21	0.2	-5	0.2	-3.1	0.5	-11	1	-2
10	COc1ccccc1NC(=S)NCCc1ccc(Cl)cc1	-0.1	-8	2.7	-1.4	1.8	7	·	-10

Quoted at random: 2 entries already listed
nr	smiles	Bfl-1 A1 inh	Calb FLC	RanGTP-Imp inh	LANA-H2A inh	UCH37 inh	Beta2AR agonist	Beta apoptosis	T cruzi inh
5	CCN1CCN(CCCNC(=O)C2c3ccccc3C(=O)N(C)C2c2ccc(OC)cc2)CC1 (stereo unspecified)	-0.5	8	0.3	-0.9	2.9	-1	9	-8
2	Cn1c(N)c(C(=O)COC(=O)C2CCC(C(C)(C)C)CC2)c(=O)n(C)c1=O (stereo unspecified)	0.0	2	4.3	0.6	4.0	-1	-9	27

(list continues)
nr	smiles	Bfl-1 A1 inh	Calb FLC	RanGTP-Imp inh	LANA-H2A inh	UCH37 inh	Beta2AR agonist	Beta apoptosis	T cruzi inh
11	Cc1sc2ncn(CCn3cnc4sc(C)c(C)c4c3=O)c(=O)c2c1C	0.5	0	0.8	5.3	4.5	-2	7	0
12	COc1ccc(S(=O)(=O)N2CCOC2CNC(=O)C(=O)NCc2ccc(F)cc2)cc1OC (stereo unspecified)	1.1	5	5.6	-3.2	3.3	1	2	6
13	CSCCC(NC(=O)c1ccccc1)C(=O)OCC(=O)Nc1ccc(C)c(Cl)c1 (stereo unspecified)	-0.9	7	-1.3	-0.3	2.9	-3	-4	1
14	COc1ccccc1-n1ccnc1SCC(=O)NC1CCCC1	0.7	-2	-2.3	-0.4	0.9	2	-4	-8
15	C[C@@H](C(=O)Nc1nc2ccc(F)cc2s1)N1C(=O)C2CC=CCC2C1=O (stereo partly specified)	-0.4	-11	-1.9	-0.8	3.7	-4	-4	-16
16	CN(C)S(=O)(=O)c1ccc(NC(=O)COC(=O)c2ccccn2)cc1	1.8	-9	5.1	5.2	0.0	5	3	-7
17	Cc1ccc(O)c(NC(=O)Cc2ccc3ccccc3c2)c1	2.4	-58	-3.7	-0.2	5.1	8	-1	-6
18	Cc1c(Cl)cccc1NC(=O)CSC(N)=O	0.2	1	6.6	-0.6	5.4	1	-12	-5
19	CC(C)N=C1CC(C)(C)CC(=O)/C1=C(/O)CCCN1C(=O)c2ccccc2C1=O	0.2	-2	-1.5	-5.3	·	-12	6	12
20	Cc1cc(C)cc(N(C(=O)c2csnn2)C(C(=O)NC(C)(C)C)c2ccccn2)c1 (stereo unspecified)	0.8	9	2.0	-3.3	-0.6	5	2	-8
21	CCN(CC)C(=O)C(=O)N/N=C/c1ccc(Cl)cc1Cl	0.1	2	3.5	-3.7	·	16	1	6
22	O=C(CSc1ccccc1)Nc1ccc(C(=O)Nc2cccc(O)c2)cc1	-0.8	2	-0.9	-3.7	3.2	7	0	-8
23	CCCCCCN=C(C)C1=C(O)C(C(=O)OC)C(C)(C)CC1=O (stereo unspecified)	0.0	-6	3.9	6.7	1.6	0	2	7
24	Cc1ccc(NC(=O)c2ccncc2)cc1S(=O)(=O)N(C)C	-0.3	-10	?	·	3.2	-2	0	-12
25	O=C(COc1ccc2c(-c3ccccc3)cc(=O)oc2c1)NC1CCS(=O)(=O)C1 (stereo unspecified)	-0.6	·	·	-5.0	5.7	-1	-2	·
26	CCCCCCC(=O)N(O)C1CC(=O)N(c2ccc(F)cc2)C1=O (stereo unspecified)	0.2	-3	2.2	1.5	2.8	-5	-26	-22
27	O=C(CSc1nc2ccccc2s1)c1ccc(O)cc1O	-8.6	31	4.1	0.9	3.7	0	-13	3
28	O=C(NCCc1c[nH]c2ccccc12)C(=O)NCC1OCCN1S(=O)(=O)c1cc(F)ccc1F (stereo unspecified)	-0.6	2	5.2	3.7	5.6	18	0	-9
29	Cn1c(=O)c2c(nc(CN3CCN(C(=O)c4ccco4)CC3)n2Cc2ccccc2)n(C)c1=O	-0.4	-10	1.7	-5.8	2.0	-2	-3	1
30	CN(Cc1ccccc1)C(=O)C1CCN(S(=O)(=O)c2ccc3nc4c(c(C(=O)O)c3c2)CCCC4)CC1	0.0	-1	4.1	2.4	-2.1	6	-4	0

Given screen by screen: five of the compounds above.
#23 CCCCCCN=C(C)C1=C(O)C(C(=O)OC)C(C)(C)CC1=O (stereo unspecified)
#24 Cc1ccc(NC(=O)c2ccncc2)cc1S(=O)(=O)N(C)C
#25 O=C(COc1ccc2c(-c3ccccc3)cc(=O)oc2c1)NC1CCS(=O)(=O)C1 (stereo unspecified)
#26 CCCCCCC(=O)N(O)C1CC(=O)N(c2ccc(F)cc2)C1=O (stereo unspecified)
#27 O=C(CSc1nc2ccccc2s1)c1ccc(O)cc1O

Assay by compound	23	24	25	26	27
Bfl-1 A1 inh	0.0	-0.3	-0.6	0.2	-8.6
Calb FLC	-6	-10	·	-3	31
RanGTP-Imp inh	3.9	?	·	2.2	4.1
LANA-H2A inh	6.7	·	-5.0	1.5	0.9
UCH37 inh	1.6	3.2	5.7	2.8	3.7
Beta2AR agonist	0	-2	-1	-5	0
Beta apoptosis	2	0	-2	-26	-13
T cruzi inh	7	-12	·	-22	3

New compounds follow
nr	smiles	Bfl-1 A1 inh	Calb FLC	RanGTP-Imp inh	LANA-H2A inh	UCH37 inh	Beta2AR agonist	Beta apoptosis	T cruzi inh
31	CCCCN(C(=O)C1=COCCO1)c1c(N)n(Cc2ccccc2)c(=O)[nH]c1=O	-0.6	·	-0.4	-0.1	-0.4	-5	-3	-10
32	O=C1c2ccccc2C(O)(c2ncc[nH]2)N1C1CCCCC1 (stereo unspecified)	2.2	-17	-3.4	-1.4	5.0	4	-3	-7
33	C/C(=N\Nc1ccc([N+](=O)[O-])cc1)c1cc2ccccc2o1	0.6	4	-0.2	-1.9	·	-7	0	23
34	COc1ccc(NC(=O)C2CCCN(C(=O)Nc3cccc(OC)c3)C2)cc1 (stereo unspecified)	-0.9	0	1.0	-7.2	2.1	-1	-2	11
35	CCc1n[nH]c(=S)n1/N=C/c1ccccn1	0.2	11	-1.9	2.3	·	5	0	-6
36	c1ccc2c(c1)nnn2CNc1nccs1	0.3	-4	-0.8	-9.3	1.5	2	2	-15
37	c1ccc(CNc2ncnc3sc4c(c23)CCC4)nc1	-0.6	0	-1.8	0.3	1.7	-7	-6	-5
38	O=C(NCCOc1ccccc1)C1=CC=CN2CCS(=O)(=O)N=C12	-0.3	·	·	0.9	-31	0	-10	·
39	COc1cc(/C=N\NC(=O)c2ccc(-c3ccccc3)cc2)cc(OC)c1OC(C)=O	1.2	-17	·	-2.0	·	33	30	·
40	O=C(CCN1C(=O)C2C3CCC(C3)C2C1=O)OCC(=O)c1ccccc1 (stereo unspecified)	-0.5	8	?	9.1	3.4	3	0	-5
41	COc1cccc(CC(=O)Nc2ccc(S(=O)(=O)Nc3nccs3)cc2)c1	-2.8	·	·	5.2	0.6	3	-3	·
42	O=C(CN1C(=O)c2ccccc2C1=O)NCc1ccc(N2CCOCC2)cc1	-0.1	2	-0.7	-0.2	0.9	-2	1	·
43	CCOc1ccc(OCC)c(NC(=O)CSc2nnc(C3CC3)n2CC)c1	-0.6	-5	-3.4	11	3.3	0	-2	11
44	CN(CCc1ccccc1)C(=O)c1ccc(NC(=O)Cc2ccc([N+](=O)[O-])cc2)cc1	0.7	·	·	-1.1	0.4	3	3	·
45	CC1CCCCC12NC(=O)N(CC(=O)Nc1sc3c(c1C(N)=O)CCC3)C2=O (stereo unspecified)	-0.4	-14	-1.3	-7.6	·	-12	0	-28
46	COCCn1nnnc1C(c1cc2ccc(C)cc2[nH]c1=O)N(Cc1ccco1)Cc1cccs1 (stereo unspecified)	-0.2	12	3.8	2.1	-1.5	-4	-3	31
47	O=C(O)Cc1sc(-c2ccc(Cl)cc2)nc1-c1ccccc1	-0.7	-3	1.1	0.2	0.1	-4	·	0
48	C=CCNC(=O)CSc1nc2scc(-c3ccco3)c2c(=O)n1CC=C	0.4	2	-0.8	1.4	0.7	8	-6	0
49	Cc1cccc(-n2nc3c(c2NC(=O)C(C)C)CS(=O)(=O)C3)c1C	0.5	-5	0.6	-2.1	2.0	10	2	2
50	O=C(N[C@H]1C/C=C\C[C@H](CC(=O)N(CCO)Cc2ccccc2)C(=O)N[C@H](Cc2c[nH]c3ccccc23)COC1=O)OCC1c2ccccc2-c2ccccc21	0.2	·	·	-2.5	2.2	-1	11	·
51	N#Cc1c(C(F)(F)F)cc(-c2ccccc2)n(N)c1=O	0.3	-9	4.1	6.3	-7.1	-2	-3	-9
52	CC(C)CN1CC(=O)N2C(c3ccccc3)c3[nH]c4ccccc4c3C[C@H]2C1=O (stereo partly specified)	1.5	24	2.2	1.7	3.8	9	1	-2
53	CC(C)c1ccc(NS(=O)(=O)c2ccc(N3C(=O)CCC3=O)cc2)cc1	-0.5	3	0.5	-3.8	3.8	3	0	-3
54	Cn1c(CO)nc2cc(N)ccc21	0.5	-8	-1.2	-1.0	-0.4	-3	-3	-7
55	CCOC(=O)C1CCN(S(=O)(=O)c2ccc3[nH]c(=O)c(=O)[nH]c3c2)CC1	-0.2	-2	1.4	2.9	-19	-1	-3	-5
56	COc1ccc(C(=S)N2CCCC2)cc1OC	0.2	15	-1.0	1.4	-0.2	7	-3	4
